High-throughput results: PubChem BioAssay, ICCB-Longwood Screening Facility, Harvard Medical School
Mtb MenB inh – Mtb MenB enzyme inhibition. inhibition, %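 (about 12 µg/mL by stock and volumes)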. MenB enzyme assay, absorbance read-out; some hits fall short of the stated cut. 100,000 tested, 0.43% active. AID 540299;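 active = mean of two replicates above 30%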;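 note: 0% = no compound and 100% = wells with inactive enzyme; the first replicate is given; strong numbers were not always called active; inactives centre near -10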
Target sequence (P9WNP5 whole entry, looked up): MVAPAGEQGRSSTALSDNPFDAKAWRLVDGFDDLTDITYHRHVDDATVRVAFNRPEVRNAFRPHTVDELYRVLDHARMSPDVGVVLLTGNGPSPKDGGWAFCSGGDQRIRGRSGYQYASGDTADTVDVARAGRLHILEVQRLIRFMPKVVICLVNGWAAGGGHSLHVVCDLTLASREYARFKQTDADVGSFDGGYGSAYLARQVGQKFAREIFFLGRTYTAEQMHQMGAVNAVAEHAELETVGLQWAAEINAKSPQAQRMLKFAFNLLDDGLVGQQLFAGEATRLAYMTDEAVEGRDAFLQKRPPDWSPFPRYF
Mtb MbtI inh – blocks the Mycobacterium tuberculosis siderophore enzyme MbtI | P9WFX0 | 100,000 tested, 0.89% active | inhibition, %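 (about 17 µg/mL by stock and volumes)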 | purified MbtI enzyme, fluorescence intensity read-out;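 active = above 50% in both replicates, above 80% if mildly self-fluorescent; inactive = the rest, strongly fluorescent compounds included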;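 note: 0% = mean of negative and 100% = mean of positive controls; one replicate is shown; some compounds called inactive have numbers as strong as hits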
Target sequence (P9WFX0 whole entry, looked up): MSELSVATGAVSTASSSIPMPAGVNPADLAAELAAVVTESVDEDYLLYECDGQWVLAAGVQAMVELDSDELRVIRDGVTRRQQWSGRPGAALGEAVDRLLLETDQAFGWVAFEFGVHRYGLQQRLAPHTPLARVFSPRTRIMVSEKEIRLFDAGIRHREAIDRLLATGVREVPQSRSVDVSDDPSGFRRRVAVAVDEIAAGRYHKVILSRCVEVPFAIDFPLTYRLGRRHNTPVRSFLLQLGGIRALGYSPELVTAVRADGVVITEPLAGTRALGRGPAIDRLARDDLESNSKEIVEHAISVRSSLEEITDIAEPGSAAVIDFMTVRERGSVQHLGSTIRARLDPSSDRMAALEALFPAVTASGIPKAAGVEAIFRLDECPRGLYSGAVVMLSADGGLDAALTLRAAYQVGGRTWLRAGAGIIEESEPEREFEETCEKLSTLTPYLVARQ
PV pol inh – inhibitors of poliovirus RNA polymerase binding and polymerization | poliovirus polymerase elongation, fluorescence polarization; hits give low values | 150,000 tested, 0.66% active | P03300 | % elongation, % (compound at 16.7 µg/mL); in the data active = % elongation below about 90%; note: some results filed as inactive read as strong as hits
PV pol inh intensity – recorded beside PV pol inh, whose call it bears; % elongation; measured here: total intensity read-out; formula for this scale not given here;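 total fluorescence in place of polarization; lower means less elongation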
Numbers without * were called inactive.

Screening CCCn1c(=O)/c(=C\c2ccco2)s/c1=C(/C#N)c1nc2ccccc2s1 returned Mtb MenB inh -15.8, Mtb MbtI inh -5.7, PV pol inh 44.0 and PV pol inh intensity 245.0.
`COc1cc(CC(=O)Nc2cc(Cl)ccc2Sc2nncn2C)cc(OC)c1OC` gave Mtb MenB inh -25.0, Mtb MbtI inh 13.7, PV pol inh 103.0 and PV pol inh intensity 109.0.
For CCc1nnc2n1NC(c1ccccc1)C(C(=O)Nc1ccccc1)S2 (stereo unspecified) the results were Mtb MenB inh 9.7, Mtb MbtI inh 1.6, PV pol inh 102.0 and PV pol inh intensity 104.0.
For O=C(Cn1c(=O)n(Cc2ccco2)c(=O)c2oc3ccccc3c21)Nc1cccc(Cl)c1 the results were Mtb MenB inh -4.8, Mtb MbtI inh -47.8, PV pol inh 103.0 and PV pol inh intensity 104.0.
For COCCN(C(=S)Nc1cc(F)cc(F)c1)C1CCN(C(C)=O)CC1 the results were Mtb MenB inh 3.8, Mtb MbtI inh -3.0, PV pol inh 100.0 and PV pol inh intensity 103.0.
`Cc1cc(C)n2c(SCc3ccccc3)nnc2n1` gave Mtb MbtI inh -19.8, PV pol inh 103.0 and PV pol inh intensity 106.0.
For CCCOc1ccc(C(=O)Nc2ccc(NC(=O)c3ccco3)cc2)cc1 the results were Mtb MenB inh -15.0, Mtb MbtI inh -5.5, PV pol inh 99.0 and PV pol inh intensity 99.0.
Screening CC1CCCC(NC(=O)CCn2cnc3onc(-c4ccc(F)cc4)c3c2=O)C1C (stereo unspecified) returned Mtb MenB inh -17.9, Mtb MbtI inh 4.7, PV pol inh 102.0 and PV pol inh intensity 101.0.
`O=C(CSc1c2c(nc3ccccc13)CCC2)Nc1cccc(Cl)c1` gave Mtb MenB inh -57.9, Mtb MbtI inh 10.8, PV pol inh 102.0 and PV pol inh intensity 104.0.
`O=C1CCCCC1Sc1nnc(-c2ccc3c(c2)OCO3)n1-c1ccccc1` (stereo unspecified) gave Mtb MenB inh -2.2, Mtb MbtI inh -6.1, PV pol inh 100.0 and PV pol inh intensity 103.0.
Screening O=C(C1=C(Nc2ccc(O)cc2)CCCC1)C(F)(F)F returned Mtb MenB inh -3.5, Mtb MbtI inh 31.9, PV pol inh 100.0 and PV pol inh intensity 103.0.
COc1ccc(OCC(=O)Nc2ccccc2C(=O)N2CCOCC2)cc1 was read as Mtb MenB inh -11.9, PV pol inh 97.0 and PV pol inh intensity 99.0.
CCOC(=O)C1CCN(C(=O)N2c3ccccc3Sc3ccccc32)CC1 was read as Mtb MenB inh -30.9, Mtb MbtI inh -4.8, PV pol inh 102.0 and PV pol inh intensity 109.0.
Screening Cc1cc(C)cc(OCC(=O)OCC(=O)c2ccc3c(c2)NC(=O)CO3)c1 returned Mtb MenB inh -4.3, Mtb MbtI inh 4.0, PV pol inh 102.0 and PV pol inh intensity 97.0.
`CCN(CC)C(=O)COc1ccc(Br)cc1Cl` gave Mtb MenB inh -16.2, Mtb MbtI inh -9.1, PV pol inh 104.0 and PV pol inh intensity 102.0.

5 consecutive compounds already listed, quoted:
For COCCN(C(=S)Nc1cc(F)cc(F)c1)C1CCN(C(C)=O)CC1 the results were Mtb MenB inh 3.8, Mtb MbtI inh -3.0, PV pol inh 100.0 and PV pol inh intensity 103.0.
`Cc1cc(C)n2c(SCc3ccccc3)nnc2n1` gave Mtb MbtI inh -19.8, PV pol inh 103.0 and PV pol inh intensity 106.0.
For CCCOc1ccc(C(=O)Nc2ccc(NC(=O)c3ccco3)cc2)cc1 the results were Mtb MenB inh -15.0, Mtb MbtI inh -5.5, PV pol inh 99.0 and PV pol inh intensity 99.0.
Screening CC1CCCC(NC(=O)CCn2cnc3onc(-c4ccc(F)cc4)c3c2=O)C1C (stereo unspecified) returned Mtb MenB inh -17.9, Mtb MbtI inh 4.7, PV pol inh 102.0 and PV pol inh intensity 101.0.
`O=C(CSc1c2c(nc3ccccc13)CCC2)Nc1cccc(Cl)c1` gave Mtb MenB inh -57.9, Mtb MbtI inh 10.8, PV pol inh 102.0 and PV pol inh intensity 104.0.

(list continues)
For COc1ccc(-c2nnc3sc(CN4CCCCC4)cn23)cc1 the results were Mtb MenB inh -2.8, Mtb MbtI inh 10.6, PV pol inh 100.0 and PV pol inh intensity 101.0.
Screening Cc1cccc(-n2nnnc2SCCCC(=O)c2ccccc2)c1 returned Mtb MenB inh -6.1, Mtb MbtI inh -9.9, PV pol inh 107.0 and PV pol inh intensity 104.0.
O=C(O)CCc1nnc(SCc2ccc(Cl)cc2Cl)[nH]c1=O was read as Mtb MenB inh -7.3, Mtb MbtI inh -9.6, PV pol inh 89.0 and PV pol inh intensity 112.0.
Screening CC1CCCC(C)N1CCCNC(=O)c1ccc(N2CCCC2=O)cc1 (stereo unspecified) returned Mtb MenB inh -20.3, Mtb MbtI inh -0.6, PV pol inh 101.0 and PV pol inh intensity 101.0.
O=C(Nc1ccc(-c2cn3cccnc3n2)cc1)C1CCCC1 was read as Mtb MenB inh -17.3, Mtb MbtI inh 102.7, PV pol inh 99.0 and PV pol inh intensity 99.0.
Screening Cc1nc(SCC(=O)N(c2ccccc2)C2CCS(=O)(=O)C2)n(CC(C)C)c1C (stereo unspecified) returned Mtb MenB inh -20.8, Mtb MbtI inh -2.6, PV pol inh 106.0 and PV pol inh intensity 111.0.
`O=C(/C=C/c1ccc(-c2cccs2)s1)N1CCSCC1` gave Mtb MenB inh -28.3, Mtb MbtI inh 9.2, PV pol inh 100.0 and PV pol inh intensity 102.0.
Screening CCOC(=O)c1nnc(-c2ccc(CN3CCc4ccccc4C3)cc2)o1 returned Mtb MenB inh -14.2, Mtb MbtI inh -3.5, PV pol inh 101.0 and PV pol inh intensity 103.0.
COC(=O)c1ccc(N=Nc2sc3ccccc3c2O)cc1 was read as Mtb MenB inh -42.5, Mtb MbtI inh 17.6, PV pol inh 100.0 and PV pol inh intensity 103.0.
`COc1cc(C#N)ccc1OCC(=O)c1cc(C)n(C)c1C` gave Mtb MenB inh -18.0, Mtb MbtI inh -8.7, PV pol inh 105.0 and PV pol inh intensity 108.0.
For Cc1ccc(S(=O)(=O)NCC(c2cccnc2)N(C)C)cc1 (stereo unspecified) the results were Mtb MenB inh -23.4, Mtb MbtI inh -4.3, PV pol inh 101.0 and PV pol inh intensity 113.0.
For O/N=C(\C=N\O)C12CC3CC(CC(C3)C1)C2 the results were Mtb MenB inh -2.0, Mtb MbtI inh -9.0, PV pol inh 99.0 and PV pol inh intensity 104.0.
CC1(C2(C)NC(=S)N(c3ccccc3)N2)COCOC1 (stereo unspecified) was read as Mtb MenB inh -20.0, PV pol inh 104.0 and PV pol inh intensity 99.0.
`CC(C)Oc1ccc(CSCCN)cc1` gave Mtb MenB inh -2.1, Mtb MbtI inh -5.4, PV pol inh 103.0 and PV pol inh intensity 102.0.
NNC(=O)c1ccc(COc2ccccc2)o1 was read as Mtb MenB inh -14.6, Mtb MbtI inh -18.1, PV pol inh 106.0 and PV pol inh intensity 102.0.
Screening COc1ccc(C2=[N+]([O-])C(C)(C)C(c3ccccc3)=N2)cc1 returned Mtb MenB inh -25.6, Mtb MbtI inh 2.0, PV pol inh 102.0 and PV pol inh intensity 107.0.
Screening c1ccc(CCN2CNc3nc4ccccc4n3C2)cc1 returned Mtb MenB inh 27.1, Mtb MbtI inh 6.5, PV pol inh 101.0 and PV pol inh intensity 100.0.
Screening N#Cc1c2c(c(-c3ccco3)n3c1nc1ccccc13)CCCC2 returned Mtb MenB inh 0.0, Mtb MbtI inh -9.8, PV pol inh 110.0 and PV pol inh intensity 152.0.
Screening O=C(CSc1cccc[n+]1[O-])c1ccccc1F returned Mtb MenB inh -46.0, Mtb MbtI inh 22.1, PV pol inh 98.0 and PV pol inh intensity 96.0.
Screening O=C(O)Cn1ncc(=O)c2ccccc21 returned Mtb MenB inh -1.7, Mtb MbtI inh -17.8, PV pol inh 96.0 and PV pol inh intensity 140.0.
For CN1C(=O)c2ccc(-c3nc4ccccc4s3)cc2C1=O the results were Mtb MenB inh -12.7, PV pol inh 101.0 and PV pol inh intensity 99.0.
CSc1ccc(S(=O)(=O)NCc2ccccc2)cc1 was read as Mtb MenB inh -7.2, Mtb MbtI inh -11.1, PV pol inh 101.0 and PV pol inh intensity 102.0.
CCC(Sc1nncn1C)C(=O)Nc1sc2c(c1C#N)CCCC2 (stereo unspecified) was read as Mtb MenB inh -15.0, Mtb MbtI inh 0.4, PV pol inh 102.0 and PV pol inh intensity 103.0.
c1ccc(CNc2c3c(nc4nncn24)CCC3)cc1 was read as Mtb MenB inh -3.2, Mtb MbtI inh 4.5, PV pol inh 102.0 and PV pol inh intensity 103.0.
`Nc1nnc(SCC(=O)NC(=O)C2COc3ccccc3O2)s1` (stereo unspecified) gave Mtb MenB inh -3.6, Mtb MbtI inh 4.8, PV pol inh 105.0 and PV pol inh intensity 104.0.
For CCSc1ccc2nnc(-c3ccc(C)cc3)n2n1 the results were Mtb MenB inh -10.1, Mtb MbtI inh 8.7, PV pol inh 101.0 and PV pol inh intensity 100.0.
Screening O=C(Cc1ccc(S(=O)(=O)N2CCCCC2)s1)OCC(=O)c1ccccc1 returned Mtb MenB inh -26.9, Mtb MbtI inh 16.2, PV pol inh 110.0 and PV pol inh intensity 108.0.
Cc1cc(C)nc(NCC(O)CNc2ccccc2Cl)n1 (stereo unspecified) was read as Mtb MenB inh 6.6, Mtb MbtI inh 0.6, PV pol inh 102.0 and PV pol inh intensity 99.0.
Screening O=C(O)[C@H]1CCCC[C@H]1C(=O)N[C@H]1CCCC[C@@H]1NC(=O)[C@H]1CCCC[C@H]1C(=O)O returned Mtb MenB inh 1.2, PV pol inh 109.0 and PV pol inh intensity 115.0.
CCOC(=O)c1nc2c([nH]1)C(c1ccncc1)C(C#N)=C(N)O2 (stereo unspecified) was read as Mtb MenB inh -0.3, PV pol inh 104.0 and PV pol inh intensity 103.0.
Cc1ccnc(NCc2ccc(Br)cc2)c1 was read as Mtb MenB inh -6.8, Mtb MbtI inh 1.9, PV pol inh 102.0 and PV pol inh intensity 103.0.
For Cc1ccc(SCC(=O)NCCN2C(=O)CSC2=O)c(C)c1 the results were Mtb MenB inh -6.7, Mtb MbtI inh -16.9, PV pol inh 101.0 and PV pol inh intensity 104.0.
CCOC(=O)C1CCN(C(=O)COC(=O)c2ccc(C#N)cc2)CC1 was read as Mtb MenB inh -21.1, Mtb MbtI inh 1.9, PV pol inh 108.0 and PV pol inh intensity 109.0.
O=C(CSCc1ccccc1)N1CCN(c2ncccn2)CC1 was read as Mtb MenB inh -14.4, Mtb MbtI inh 19.2, PV pol inh 102.0 and PV pol inh intensity 95.0.
For COc1cccc(/C(O)=C/c2nc3ccc(C(=O)N4CCN(c5ccccn5)CC4)cc3[nH]c2=O)c1 the results were Mtb MenB inh -13.1, Mtb MbtI inh 7.2, PV pol inh 94.0 and PV pol inh intensity 124.0.
`CCCC(=O)Nc1ccc(NC(=O)c2ccc3c(c2)OCO3)cc1` gave Mtb MenB inh -63.0, Mtb MbtI inh -1.6, PV pol inh 104.0 and PV pol inh intensity 101.0.
`CC(C)c1ccccc1NC(=O)COC(=O)Cc1ccccc1F` gave Mtb MbtI inh -11.9, PV pol inh 102.0 and PV pol inh intensity 108.0.
For Cc1ccc(CN2CC(C(=O)N3CCOCC3)CC2=O)cc1 (stereo unspecified) the results were Mtb MenB inh -18.6, Mtb MbtI inh -6.7, PV pol inh 100.0 and PV pol inh intensity 109.0.
Cc1ccc(C(=O)OCC2OC(O)C(O)C2OC(=O)c2ccc(C)cc2)cc1 (stereo unspecified) was read as Mtb MenB inh -0.3, PV pol inh 106.0 and PV pol inh intensity 111.0.
For O=C(/C=C/c1ccco1)NC(=S)Nc1ccccc1C(F)(F)F the results were Mtb MenB inh -9.4, Mtb MbtI inh 43.8, PV pol inh 102.0 and PV pol inh intensity 110.0.
`CCOc1ccc(C(CC(=O)O)NC(=O)c2c(-c3ccccc3)noc2C)cc1` (stereo unspecified) gave Mtb MenB inh -7.8, PV pol inh 108.0 and PV pol inh intensity 107.0.
CCOC(Cn1c(SCC(=O)NCCc2ccc(S(N)(=O)=O)cc2)nc2ccccc2c1=O)OCC was read as Mtb MenB inh -4.5, Mtb MbtI inh 15.3, PV pol inh 99.0 and PV pol inh intensity 102.0.
Screening CC(C)NC(=O)c1ccccc1NC(=O)CCS(=O)(=O)Cc1ccccc1 returned Mtb MenB inh -4.9, Mtb MbtI inh -27.1, PV pol inh 100.0 and PV pol inh intensity 104.0.
Screening O=c1oc2c(ccc3ccccc32)c2c1SC(C(F)(F)F)C2 (stereo unspecified) returned Mtb MenB inh -23.4, Mtb MbtI inh -1.8, PV pol inh 103.0 and PV pol inh intensity 102.0.
Screening CCc1ccccc1NC(=O)C1CC2C=CC1C2 (stereo unspecified) returned Mtb MenB inh -27.4, Mtb MbtI inh -20.0, PV pol inh 104.0 and PV pol inh intensity 107.0.
For Cc1[nH]nc(-c2ccc(O)c(C)c2O)c1Oc1ccccc1 the results were Mtb MenB inh -31.6, Mtb MbtI inh -0.4, PV pol inh 100.0 and PV pol inh intensity 103.0.
Screening O=C1OC/C(=C(\O)c2ccc(Cl)cc2)C1=O returned Mtb MenB inh -15.2, PV pol inh 101.0 and PV pol inh intensity 104.0.
`COc1ccc(-c2nnc(SCC(=O)N[C@H](c3nc4ccccc4[nH]3)C(C)C)o2)cc1` gave Mtb MenB inh -25.1, Mtb MbtI inh -14.4, PV pol inh 102.0 and PV pol inh intensity 101.0.
